# Mtb hypoxia rep – PubChem AID 1159583; actives 0.1% (n = 300,000); M. tuberculosis hypoxia-regulated fluorescent reporter, fluorescence; fluorescence inhibition, % (test concentration not listed);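 active means 35 to 45% if threefold the growth effect, above 45% if 1.5-fold the growth effect; inactive means the rest, general growth blockers included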;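 further: wells of about 50 µL received 100 nL stock; 0% = vehicle wells and 100% = reference inhibitor wells; whole bacteria with a GFP reporter of the hypoxia response; strong numbers were not always called active; many hits fall short of the cut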
# RN4220 kill – growth inhibition of S. aureus RN4220, primary screen, OD600 | 16 h | inhibition, % (no concentration beside the values) | actives 0.33% (n = 330,000) | AID 1259311, 2017;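 active means z-score of -3 or lower and OD600 up to 0.18 on both plates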;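 further: plate controls were untreated cells for no effect and reference antibiotic for full effect; stock transfer was 100 nL into about 80 µL; one replicate is shown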
# BJeLR viability – MLPCN primary cell-based screen for lethality selective to Ras in HRASV12 cells; actives 0.17% (n = 300,000); BJeLR (HRASV12) viability, CellTiter-Glo ATP luminescence, 48 h; reference of the scale not given here; AID 1554, 2009; inhibition, % (test concentration not listed);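 active means replicate mean above 50%; inconclusive means above 50% but judged a plate artefact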;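 further: 50 nL library stock added to about 25 µL; numbers are from one replicate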
# Sa ugtP lethal – growth inhibition of ugtP-null S. aureus, primary screen, RN4220 ugtP deletion, OD600. 16 h; some inactives read as strong as hits. actives 0.54% (n = 330,000). growth inhibition, % (concentration not given with the values);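 active means z-score under -3 and OD600 up to 0.15 on both plates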;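 further: plate controls were untreated wells for no effect and antibiotic for full effect; wells of about 80 µL received 100 nL stock; the first replicate is given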
# Bead autofluor – counter-screen for toxin protease inhibitors: compound fluorescence; compound autofluorescence counterscreen, microsphere flow cytometry; hits give high values; fluorescence intensity (concentration not given with the values); actives 3.1% (n = 360,000);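 active means at least 3 SD above the mean of all compounds, about 16000 in these data; inconclusive means too few beads counted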;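 further: 100 nL of 1 mM stock went into each well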
# PrP 5UTR inh – inhibition of PrP 5' UTR reporter expression; cell-based PrP 5' UTR mRNA reporter, plate reader; inhibition, % (no concentration beside the values); actives 0.35% (n = 340,000); AID 488862, 2010;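 active means every replicate at 50% or more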;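 further: 0 = median of the neutral control wells; tested in H4 reporter cells; numbers are from one replicate; inactives centre near -14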
# Mtb hypoxia rep growth – second read-out of Mtb hypoxia rep, no call of its own (marks repeat the call); growth inhibition, %; measured here: M. tuberculosis growth (absorbance);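 0% = vehicle and 100% = reference antibiotic; read after six days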
# An asterisk follows results filed as active; ? = inconclusive; . = no result given.
SMILES,Mtb hypoxia rep,Mtb hypoxia rep growth,RN4220 kill,BJeLR viability,Sa ugtP lethal,Bead autofluor,PrP 5UTR inh
Cc1cc(/C=C2\SC(=O)NC2=O)c(C)n1-c1ccc(N2CCOCC2)cc1,4.1,12.1,8.0,7.2,-7.9,3075,-8.1
Cc1cc(O)c(C(C)C)cc1N=Cc1ccccc1[N+](=O)[O-],20.1,10.7,1.9,.,-8.7,4154,-18.3
Cc1ccc(S(=O)(=O)N2C(c3cccs3)CC=C(C(=O)O)C2c2ccc(Cl)cc2)cc1 (configuration not stated),-0.8,7.7,22.6,.,11.0,.,.
Cc1ccc(OCCN2CCN(C)CC2)c([N+](=O)[O-])c1,.,.,.,14.3,.,2302,-11.8
CCOc1ccccc1Nc1ccc(C(=O)O)cc1NC(C)=O,.,.,-0.7,.,-6.7,2499,-15.7
Cc1ccc(NC(CSC(N)=O)=NS(=O)(=O)c2ccc(C)cc2)cc1,-1.3,-9.0,-4.1,.,1.4,.,.
O=C(O)COc1ccc2oc3ccccc3c2c1,-2.1,6.9,-3.7,3.4,13.0,2153,-26.8
CCOC(=O)CSc1nc(C)c2cccc(C)c2n1,6.4,7.3,6.8,-5.4,17.7,3838,-17.6
CCOC(=O)C1=C(CN2CCSCC2)NC(=O)NC1c1ccc2c(c1)OCO2 (configuration not stated),-3.3,5.2,2.8,-5.1,10.7,4795,-17.8
COc1ccc(C(=O)OCCCc2cc3ccccc3c(=O)o2)cc1,18.3,8.6,10.3,.,4.5,3011,-16.6
O=C(c1ccccc1)N1CCCC(c2ccc(Cl)cc2)=N1,6.8,-11.0,1.8,13.2,-13.1,9672,-10.5
O=C(NCCCc1ccccc1)c1ccc(CS(=O)Cc2ccc(Cl)cc2)o1 (configuration not stated),3.4,-0.6,-4.3,2.1,71.1,4183,0.4
Cc1nnsc1C(=O)Nc1ccccc1Cl,5.4,-5.8,1.3,-7.0,7.5,21871*,-12.9
Cn1cc(S(=O)(=O)N2CCCC2)cc1C(=O)NCCc1ccccc1,5.7,2.8,-9.1,-7.6,3.7,4167,-29.0
CCN(CC)C(=O)C(=O)NN=Cc1ccc(C(=O)OC)cc1,13.8,6.1,1.5,.,6.4,.,.

# The final three compounds of the part before come first, to join the parts.
SMILES,Mtb hypoxia rep,Mtb hypoxia rep growth,RN4220 kill,BJeLR viability,Sa ugtP lethal,Bead autofluor,PrP 5UTR inh
Cc1nnsc1C(=O)Nc1ccccc1Cl,5.4,-5.8,1.3,-7.0,7.5,21871*,-12.9
Cn1cc(S(=O)(=O)N2CCCC2)cc1C(=O)NCCc1ccccc1,5.7,2.8,-9.1,-7.6,3.7,4167,-29.0
CCN(CC)C(=O)C(=O)NN=Cc1ccc(C(=O)OC)cc1,13.8,6.1,1.5,.,6.4,.,.
c1ccc(-c2csc(-n3cnnn3)n2)cc1,-5.6,-4.1,2.7,-1.8,-9.7,21991*,-15.4
O=C(O)Cc1cc(C(=O)Nc2ccc(Br)cc2)sc1-c1ccccc1,-2.2,2.4,15.7,7.7,-5.8,.,.
CC(C)Cn1c(N)c(C(=O)CCl)c(=O)n(C)c1=O,20.8,10.7,7.9,3.2,-1.2,3573,5.8
CSc1nnc(C)c(=O)n1COC(=O)COc1ccc(F)cc1,9.4,5.4,1.8,14.3,6.0,5686,-4.7
O=C(c1ccc(-c2ccc(Cl)cc2)o1)N1CCN(c2ccc([N+](=O)[O-])cc2Cl)CC1,-3.2,-11.1,-4.8,4.8,-15.7,21861*,-21.5
COc1cc(/C=C2/C(=O)N(c3cccc(Br)c3)N=C2C)cc(OC)c1O,12.2,8.1,6.5,-8.7,4.8,3924,-14.1
COc1ccc(CN(CC(=O)NCCc2ccccc2)C(=O)CCC(=O)Nc2cc(C)ccn2)cc1,15.6,4.8,2.5,7.8,2.8,3989,-17.0
CC=CC(=O)Nc1cccc(C2=NOC3(C2)CC(C(N)=O)N(C(=O)c2cc([N+](=O)[O-])cc([N+](=O)[O-])c2C)C3)c1 (configuration not stated),10.1,9.4,5.2,.,-0.7,.,.
CC(=O)C1=C(O)C(=O)N(c2ccc(S(N)(=O)=O)cc2)C1c1ccc([N+](=O)[O-])cc1 (configuration not stated),10.4,13.3,7.8,2.8,11.6,2993,-33.6
O=C(NNC(=S)NCc1ccco1)c1ccccc1Br,5.2,10.2,0.3,-0.8,-1.6,5314,-12.2
COCCCNC(=S)Nc1ccc2nc3n(c(=O)c2c1)CCCCC3,-0.4,2.0,-2.3,-1.9,1.3,3131,-30.0
O=C(NC1CCCC1)c1ccccc1-c1ccccc1,-5.9,-5.3,0.9,-4.7,-2.6,2490,-15.8
COc1ccc(CNC(=O)CN(c2ccccc2)S(=O)(=O)c2ccccc2[N+](=O)[O-])cc1,0.2,-3.0,5.9,1.4,-6.8,4490,3.1
CN(CC(=O)O)S(=O)(=O)c1ccc2c(c1)n(C)c(=O)c(=O)n2C,-11.2,-3.5,11.9,4.6,6.3,3263,-11.9
N#CC(=NNc1ccc(S(=O)(=O)N2CCCCCC2)cc1)C(N)=S,12.6,8.9,7.2,.,-1.4,.,.
CC1(C)OC(=O)C(=CNc2ccccn2)C(=O)O1,5.2,2.0,1.6,-7.9,5.6,3227,-26.7
CCC(C)NCCC(=O)Nc1ccc(Cl)c(S(=O)(=O)Nc2ccc(Cl)cc2)c1 (configuration not stated),-8.3,-1.5,-0.5,6.9,-2.6,4442,-14.4
CC1=NNC(=O)C1CC(=O)NN=C/C(Br)=C/c1ccccc1 (configuration not stated),13.2,6.9,5.5,.,-1.3,.,.
O=C1C(c2ccccc2)NC(=S)N1C1CCCCC1 (configuration not stated),2.1,3.0,8.7,-11.7,-7.1,3367,-12.8
CCOc1ccc(NC(=O)CSc2ncc(-c3ccc(F)cc3)n2Cc2ccco2)cc1,12.0,4.8,-12.8,0.8,16.6,4260,-1.1
COC(=O)C(/C=N/O)NC(=O)c1ccccc1 (configuration not stated),.,.,.,6.0,.,3512,-26.9
O=C(CCCn1ncn2c(cc3occc32)c1=O)NCc1cccc(Cl)c1,8.5,3.8,5.5,2.5,6.9,5096,-2.1
CCOc1cc(N2CCOCC2)c(OCC)cc1NC(=O)COC(=O)CCn1c(C)csc1=O,8.3,2.0,4.7,-0.5,11.8,4365,-15.9
C[C@@H]1CN([C@@H](C)CO)C(=O)c2cccc(NC(=O)C3CCCCC3)c2O[C@@H]1CN(C)Cc1ccc(Cl)c(Cl)c1,8.6,5.2,-13.7,.,-14.7,4253,-16.3
CN(C)S(=O)(=O)c1ccc(N2CCCC2)c(C(=O)NCc2ccccc2)c1,5.2,14.7,4.7,-3.7,8.0,2944,-13.9
COc1ccc(S(=O)(=O)N2CCOC2CNC(=O)C(=O)NCCc2c[nH]c3ccccc23)cc1C (configuration not stated),-16.2,1.0,25.4,3.7,8.3,5772,-18.6
C/C(=N\NC(=O)c1cccc(Br)c1)c1cccnc1,.,.,.,-4.6,.,4790,-12.0
CC1CCCCC12NC(=O)N(CC(=O)NCCc1c[nH]c3ccccc13)C2=O (configuration not stated),5.8,8.6,-1.0,.,6.5,8087,-19.8
O=c1[nH]c2cc3c(cc2cc1CN(Cc1cccnc1)C(=S)NCc1ccco1)OCO3,10.5,9.0,2.7,5.3,1.5,4280,-15.7
CCOC(=O)C1=C(C)NC2=C(C(=O)c3ccccc32)C1c1ccc([N+](=O)[O-])o1 (configuration not stated),4.4,3.1,25.9,12.7,21.3,2988,-10.7
CC1(C)Cc2c(sc(NC(=O)COc3ccccc3)c2C#N)C(C)(C)N1,12.3,8.0,10.6,6.4,-75.4,4089,-4.5
O=C(C(Cl)c1ccccc1)N1CCOCC1 (configuration not stated),10.8,4.1,1.7,3.7,-3.7,3915,-18.7
CN(C(=O)COC(=O)c1ccc(Cl)c(S(=O)(=O)N2CCCCCC2)c1)C1CCS(=O)(=O)C1 (configuration not stated),9.8,7.2,8.1,.,1.2,4157,-22.4
Cc1ccc(NC(=O)C2CCN(S(=O)(=O)c3cccs3)CC2)cc1,1.1,2.0,-5.7,-7.9,1.3,4564,-4.5
CCn1c(SCC(=O)c2ccccc2)nnc1-c1cccnc1,0.5,6.5,0.3,-8.0,2.7,2342,-14.7
CC(C)c1ccc(N2C(=O)NC(=O)/C(=C\c3cnc(-c4ccccc4)nc3)C2=O)cc1,.,.,0.3,-2.3,11.0,2219,-21.1
O=C(CCN1CCOCC1)c1ccc2c(c1)OCCO2,.,.,.,-7.6,.,?,-17.2
CCOC(=O)/C=C/C(=O)Nc1ccc(S(=O)(=O)Nc2cc(C)on2)cc1,.,.,3.7,-4.1,12.1,4686,-7.7
O=C(NN1C(=O)C2C3CCC(O3)C2C1=O)c1ccc(Br)o1 (configuration not stated),4.6,3.1,6.3,-10.1,0.9,2115,-41.9
CCSc1nnc(-c2ccncc2)o1,1.6,1.5,1.5,-6.8,-1.4,6545,-26.6
CC1=NNC(=O)/C1=C\c1cn(-c2ccccc2)nc1-c1ccccc1,10.7,2.0,5.4,.,-16.4,4150,-39.2
Cc1cc(/C=C2\C(=O)NC(=O)N(Cc3ccccc3)C2=O)c(C)n1C1CC1,-11.3,2.9,1.8,-1.7,6.4,2695,-21.4
O=C(NC(=S)NNC(=O)c1ccccc1O)c1cccs1,1.8,-10.8,25.9,3.9,-7.0,4332,9.3
COc1cc(/C=N/NC(=O)CCN2CCN(C(c3ccccc3)c3ccccc3)CC2)ccc1O,.,.,.,12.5,.,2166,-13.9
CCN1C(=O)[C@H]2[C@@H](c3ccc(-c4ccc(C(C)=O)cc4)cc3)N[C@@](Cc3ccccc3)(C(=O)OC)[C@H]2C1=O,.,.,.,-1.2,.,3920,3.9

# Next part; the last 5 above are carried over.
SMILES,Mtb hypoxia rep,Mtb hypoxia rep growth,RN4220 kill,BJeLR viability,Sa ugtP lethal,Bead autofluor,PrP 5UTR inh
CC1=NNC(=O)/C1=C\c1cn(-c2ccccc2)nc1-c1ccccc1,10.7,2.0,5.4,.,-16.4,4150,-39.2
Cc1cc(/C=C2\C(=O)NC(=O)N(Cc3ccccc3)C2=O)c(C)n1C1CC1,-11.3,2.9,1.8,-1.7,6.4,2695,-21.4
O=C(NC(=S)NNC(=O)c1ccccc1O)c1cccs1,1.8,-10.8,25.9,3.9,-7.0,4332,9.3
COc1cc(/C=N/NC(=O)CCN2CCN(C(c3ccccc3)c3ccccc3)CC2)ccc1O,.,.,.,12.5,.,2166,-13.9
CCN1C(=O)[C@H]2[C@@H](c3ccc(-c4ccc(C(C)=O)cc4)cc3)N[C@@](Cc3ccccc3)(C(=O)OC)[C@H]2C1=O,.,.,.,-1.2,.,3920,3.9
COc1cc(C(=O)Nc2ccncc2)c([N+](=O)[O-])cc1OC,2.1,11.1,-0.8,-10.4,5.8,4599,-0.1
O=C1CCc2cc(NS(=O)(=O)c3ccc(F)cc3)cc3c2N1CCC3,3.0,-1.0,9.6,3.0,1.9,6021,-24.0
N#C/C(=C\N1CCN(Cc2ccc3c(c2)OCO3)CC1)c1nc2ccccc2s1,3.0,8.3,22.9,2.3,49.4,6767,-23.2
CCOc1cc(Br)c(CC(=O)O)cc1OCC,-1.4,8.9,3.6,11.3,8.8,4238,-10.1
CC(=O)N/N=C\c1ccccc1OC/C=C/c1ccccc1,.,.,.,2.6,.,4473,-38.1
COc1ccc(N2CCN(C(=O)c3cc(=O)[nH]c4ccccc34)CC2)cc1,-2.0,2.0,-2.6,18.0,9.1,4696,-23.4
Cc1cc2cc(CNC(=O)Cc3cccs3)ccc2n1C,0.0,3.3,-15.4,-4.6,-4.5,2301,-11.2
S=C(NCc1ccco1)Nc1cc(Cl)c(Cl)cc1Cl,9.7,4.9,-7.1,10.5,-14.3,2059,-20.2
Cc1ccc(C2=NOC(C)(c3nnc(Cc4ccccc4)o3)C2)cc1 (configuration not stated),6.8,7.7,1.4,-1.8,1.1,3786,-14.5
O=C(CCn1nc(-c2ccccc2)ccc1=O)N1CCCC1,7.4,-0.3,3.7,11.1,-1.4,7598,-15.1
COC(=O)c1ccc(NC(=O)CNS(=O)(=O)c2cccs2)cc1,-9.3,3.3,-4.3,0.0,-3.6,8837,-11.2
COc1ccc(S(=O)(=O)CC2(O)CCN(C(=O)CC(C)C)CC2)cc1,6.2,2.5,5.3,10.0,-70.4,4865,-14.1
